Vif TR-FRET = inhibitors of Vif binding to APOBEC3G peptide, primary screen, biochemical, TR-FRET, GST-Vif 1-94, biotin-A3G peptide, dose response retest (AID 1117319); one-dose inhibition, %; IC50 in µM for titrated hits; 260,000 compounds, 0.57% hits; TR-FRET GST-Vif / biotin-A3G peptide binding; higher % means a stronger effect; test concentration not given here; strong numbers were not always called active;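 active means above the screen mean plus three standard deviations and confirmed in dose response; inconclusive means results disagree or hit not tested in dose response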;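 further: Vif residues 1-94 fused to GST binding biotinylated APOBEC3G peptide 110-148; 0% = full assay without inhibitor and 100% = GST in place of GST-Vif; retest series ran down from 100 µM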
HNF4A DNA FP = change in binding of human HNF4 alpha to DNA | P41235 | HNF4a-FITC DNA binding, fluorescence polarization, 1 h | activity change, % at 10 µM | 360,000 compounds, 0.3% hits | AID 1224865; in the data active means activity change above about 30%, passing the limit was not always enough;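 further: controls were the assay level and a saturating level of protein; the project sought stronger binding though the title names inhibitors; some compounds called inactive have numbers as strong as hits; positive values seem to mean higher polarization but the record does not say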
A1 inh = inhibitors of the anti-apoptotic protein A1, read as caspase activation | caspase activation, % (test concentration not listed) | MEF A1-2A-BIM cells, Caspase-Glo 3/7 luminescence, 3 h; percent of clofoctol response, vehicle zero | 330,000 compounds, 0.066% hits;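 active means over half of replicate activation scores above 10%, or exactly half above 10 with the replicate mean above 10; inconclusive means replicate mean below 10 yet half the replicates above 10; inactive means over half of replicates below 10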;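 further: wells of about 30 µL received 50 nL stock; many hits fall short of the cut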
Beta2AR agonist = agonists of human beta-2 adrenergic receptor inducing internalization. P07550. Am2.2-beta2AR cells, FAP receptor internalization, flow cytometry; reference of the scale not given here. response, % (test concentration not listed). 340,000 compounds, 0.43% hits;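 active means response above a set limit, near 3 SD of response in nonfluorescent compounds, cut at about 42% in these data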;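 further: stock transfer was 100 nL into about 11 µL; a reference agonist was the positive control; negative values mostly stem from fluorescent compounds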
Ecoli growth = inhibitors of Escherichia coli growth; OD600, 23 h; active compounds read low; OD600 absorbance (test concentration not listed); 330,000 compounds, 0.21% hits;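 active means OD600 absorbance below the run mean of sample wells minus 3.6 SD, in any replicate, cut at about 0.56 in these data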;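 further: stock transfer was 300 nL into about 60 µL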
UCH37 inh = blocks the human deubiquitinase UCH37; inhibition, % (no concentration beside the values); Q9Y5K5; purified proteasome/UCH37, Ub-AMC cleavage fluorescence; 330,000 compounds, 0.33% hits;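 active means mean of two replicates above 20%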;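 further: 0% = compound-free wells with enzyme and 100% = wells lacking proteasome; stock transfer was 100 nL into about 20 µL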
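Material: human UCH37 enzyme supplied as purified proteasome complex. Measure: % inhibition of Ub-AMC cleavage fluorescence. Medium: pH 7.4 Tris-HCl (50 mM) with ovalbumin, ATP-MgCl2, DTT. Times: 30 min preincubation with enzyme, 25 min cleavage at room temperature. Detection: AMC fluorescence intensity at 355/460 nm.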
LANA-H2A inh = blocks KSHV LANA binding to histone H2A/H2B; AID 2629; 320,000 compounds, 0.6% hits; cell-free LANA-H2A/H2B peptide, fluorescence polarization; Q9QR71; inhibition, % (concentration not given with the values); in the data active means inhibition mostly above about 10%, no sharp cut-off; inactive means mostly below about 6.7%;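 further: stock transfer was 7.5 nL into about 10 µL; 0% = median of vehicle wells and 100% = median of positive control wells; one replicate is shown; the record names a cut of 25% in any replicate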
Target sequence (Q9QR71 whole entry, looked up): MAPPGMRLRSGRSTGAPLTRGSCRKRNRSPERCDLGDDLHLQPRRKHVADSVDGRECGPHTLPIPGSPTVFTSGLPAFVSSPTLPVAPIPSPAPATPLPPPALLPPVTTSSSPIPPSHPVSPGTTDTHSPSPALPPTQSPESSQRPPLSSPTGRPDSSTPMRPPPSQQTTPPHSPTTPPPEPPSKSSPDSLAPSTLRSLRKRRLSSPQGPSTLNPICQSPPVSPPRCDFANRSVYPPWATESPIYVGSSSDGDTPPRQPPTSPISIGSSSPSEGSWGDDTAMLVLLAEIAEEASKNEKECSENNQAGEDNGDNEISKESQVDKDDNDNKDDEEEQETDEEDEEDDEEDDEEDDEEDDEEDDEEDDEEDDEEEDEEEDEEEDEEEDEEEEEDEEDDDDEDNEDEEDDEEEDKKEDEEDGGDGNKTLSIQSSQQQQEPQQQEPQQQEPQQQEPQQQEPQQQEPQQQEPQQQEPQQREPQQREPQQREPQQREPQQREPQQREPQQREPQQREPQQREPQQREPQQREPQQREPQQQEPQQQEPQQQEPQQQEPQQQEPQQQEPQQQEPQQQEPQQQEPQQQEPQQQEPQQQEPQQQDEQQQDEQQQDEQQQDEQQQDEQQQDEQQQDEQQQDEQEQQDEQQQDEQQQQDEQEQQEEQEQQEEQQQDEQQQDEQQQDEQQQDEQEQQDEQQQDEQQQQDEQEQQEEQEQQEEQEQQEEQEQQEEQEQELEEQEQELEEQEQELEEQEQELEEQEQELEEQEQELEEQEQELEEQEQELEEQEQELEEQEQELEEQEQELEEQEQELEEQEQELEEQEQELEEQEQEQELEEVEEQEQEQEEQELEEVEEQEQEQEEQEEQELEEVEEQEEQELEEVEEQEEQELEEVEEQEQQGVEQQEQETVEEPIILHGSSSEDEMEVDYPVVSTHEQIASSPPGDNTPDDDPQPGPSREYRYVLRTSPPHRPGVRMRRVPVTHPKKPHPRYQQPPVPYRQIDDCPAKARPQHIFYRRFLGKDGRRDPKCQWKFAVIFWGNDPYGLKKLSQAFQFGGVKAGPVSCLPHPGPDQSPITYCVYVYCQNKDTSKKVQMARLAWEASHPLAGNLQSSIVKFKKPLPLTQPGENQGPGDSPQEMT
* marks the source's active call; other numbers are inactive results; ? = inconclusive; nt = no result given; & = joins results of further samples. No enrichment for hits; 2.1% or so of the library scored in one or more.

SMILES	Vif TR-FRET	HNF4A DNA FP	A1 inh	Beta2AR agonist	Ecoli growth	UCH37 inh	LANA-H2A inh
COC(=O)N/N=C(C)/C=C/c1ccccc1	-8%	-2.8	0.6	-10	nt	nt	-0.2
CCOC(=O)C1CCCN(C(=O)COc2ccc(N(C)S(=O)(=O)c3ccc(F)cc3)cc2)C1 (stereo unspecified)	-3%	-0.9	0.6	7	0.7	-0.4	1.3
COc1ccc(/C=C2\N=C(C(C)(C)C)OC2=O)c(OC)c1	1%	-1.0	0.8	11	0.73	-2.7	4.6
CN(C(=O)CSc1nnc(-c2ccncc2)n1-c1ccccc1)C1CCS(=O)(=O)C1 (stereo unspecified)	nt	0.4	-0.7	3	0.68	-4.3	-2.6
O=C(Nc1cccc(F)c1)c1ccc2ncsc2c1	nt	-0.1	-6.2	-7	0.6	1.4	2.8
O=C(Nc1cccc(-c2cnc3ccccc3n2)c1)c1ccncc1	-3%	1.5	-1.0	-8	0.74	3.5	0.3
N=C1c2ccccc2CN1NC(=O)c1cccc(S(=O)(=O)N2CCCC2)c1	-2%	-1.8	0.4	1	0.68	1.3	-4.2
O=C1CC(C(=O)N2CCOCC2)C2(CCCC2)O1 (stereo unspecified)	-1%	0.2	0.4	4	0.71	-1.7	-0.4
CCc1ccc(NC(=O)Nc2cccs2)cc1	1%	0.6	-4.8	-11	0.64	1.0	1.2
Cc1cc(OC(C)C(=O)NCc2cccnc2)c2c(C)c(Cc3ccccc3)c(=O)oc2c1 (stereo unspecified)	nt	-2.2	0.7	3	0.67	-23	3.2
O=C(NC(=S)Nc1ccc2c(c1)C(=O)c1ccccc1C2=O)c1ccc(F)cc1	29%	nt	-4.3	nt	nt	nt	-4.3
COc1ccc(NC(=O)c2oc3ccccc3c2NC(=O)C(C)(C)C)cc1	1%&-3%	0.1	0.4	-2	0.73	-2.3	-1.7
COc1ccc(CCN2CC(C(=O)NCc3ccc(F)cc3)CC2=O)cc1OC (stereo unspecified)	26%	1.3	0.2	-3	0.71	1.0	-0.2
CCOC(=O)c1c[nH]c2c3c(ccc2c1=O)CCCC3	?	0.9	1.6	-5	0.7	-4.3	-5.1
CCOc1ncccc1-c1nc(-c2cccs2)no1	-2%	-3.0	-0.4	-16	0.68	1.2	2.2
C=CC[C@@H](CC(=O)NCCO)C(=O)N[C@@H](C)COC(=O)[C@H](CC=C)CC(=O)OC(C)(C)C	1%	0.7	nt	-3	0.72	-2.5	nt
COc1ccccc1-c1ccc(NC2CCCCC2)nn1	?	-3.2	-2.1	-2	0.73	-2.7	5.1
Cc1ccc(OCCCN2C(=O)C(=O)c3cccc(C)c32)cc1	3%	0.2	0.0	-17	0.65	1.3	-0.3
CCOC(=O)C1(CCc2ccccc2)CCN(C(=O)CN2C(=O)CSC2=O)CC1	1%	3.8	0.2	-3	0.7	2.8	-2.1
Cc1cc(SCC(=O)NCC2CCCO2)nc2ccccc12 (stereo unspecified)	nt	16	1.0	-20	0.72	4.0	-2.0
Cn1c(SCC(=O)Nc2ccccc2O)nnc1-c1ccco1	nt	-3.7	0.9	-17	0.71	4.2	3.3
COc1ccc2[nH]c(=O)c(COC(=O)c3cccs3)cc2c1	nt	2.0	-0.1	-5	0.7	-46	1.8
Cc1ccc(C(=O)N(C)CC(=O)Nc2cccc(C)c2C)o1	nt	-0.9	0.5	-2	0.68	5.1	-2.0
O=C(O)c1ccccc1N=Cc1c(O)n(-c2nccs2)c(=O)c2ccccc12	-2%	-2.6	-0.5	-1	0.7	3.8	-1.0
CSc1ccc(S(=O)(=O)NCc2ccccc2)cc1	0%	1.2	0.0	-9	0.65	4.6	0.1
The list goes on.
SMILES	Vif TR-FRET	HNF4A DNA FP	A1 inh	Beta2AR agonist	Ecoli growth	UCH37 inh	LANA-H2A inh
Cc1ccc(C(=O)N/N=C\c2ccc(OC(=O)c3cccc(F)c3)cc2)cn1	nt	3.2	-0.6	12	nt	nt	5.5
Cc1ccccc1C(=O)N1CCN(c2ccc(N3CCOCC3)nn2)CC1	3%	5.0	0.5	0	0.64	-159	2.5
COc1ccccc1C(=O)N1CCN(Cc2nc3cc([N+](=O)[O-])ccc3n2C)CC1	5%	-2.8	1.2	4	0.71	1.0	2.0
Clc1cccc(Cl)c1OCCCCN1CCCCC1	nt	3.4	0.2	-3	0.68	4.2	-0.9
Cc1ccc(NCC(O)C(O)C(O)CO)c(N=Nc2ccccc2)c1C (stereo unspecified)	20%	-3.5	0.6	-7	0.69	5.6	-1.6
S=c1[nH]nc(CCc2nc3ccccc3[nH]2)n1-c1ccccc1	8%	-4.5	-0.3	-1	0.72	0.2	-1.7
CC1(C)Cc2cccc(OCC(=O)N3CCN(c4ccccc4Cl)CC3)c2O1	-10%	3.1	0.1	4	0.61	0.4	3.8
Cc1ccc2nc(SCC(=O)NCc3ccco3)nc(=O)n2c1	7%	0.0	-0.1	-7	0.68	4.4	2.1
COc1ccccc1-c1nnc(SCC(=O)Nc2ccc(S(N)(=O)=O)cc2)n1N	-6%	4.9	0.0	0	0.69	5.0	3.0
CCCn1c(CNS(=O)(=O)c2ccc(C)cc2)nc2ccccc21	4%	2.3	0.2	2	0.68	2.0	2.0
COc1cc(C(=O)NNC(=O)CCOc2cccc(Br)c2)cc(OC)c1OC	nt	-1.4	-0.4	-6	0.71	3.7	-0.1
OCCN1CCOCCOCCN(CCO)CCN(CCO)CC1	-11%	-0.6	0.1	4	0.7	3.0	-2.7
O=C(CSc1nc2ccccc2[nH]1)Nc1c(F)c(F)c(F)c(F)c1F	-11%	0.4	-0.6	6	0.67	2.0	3.7
CCOCCCn1cnc2c([nH]c3cc(OC)ccc32)c1=O	-3%	2.6	?	-7	0.67	3.1	4.1
ONC(=NCc1ccccc1)c1ccccc1	-4%	0.5	nt	-1	nt	nt	nt
c1ccc(CN2CCN(c3nc4ccccc4s3)CC2)cc1	-4%	-2.5	-0.8	-3	0.69	1.7	3.9
CCCS(=O)(=O)N1CCN(Cc2ccccc2[N+](=O)[O-])CC1	nt	-5.5	1.0	-6	0.63	0.4	-4.6
O=C(N/N=C/c1ccccc1OC(=O)c1ccc2c(c1)OCO2)c1ccccc1	23%	-1.6	-0.3	6	nt	nt	nt
CC(c1ccccc1)n1cc(C(=O)NCCN2CCOCC2)nn1 (stereo unspecified)	16%	3.1	-0.4	14	0.72	0.9	-5.8
CC1(C)Cc2c(c(N3CCOCC3)nc3sc4c(=O)[nH]cnc4c23)CS1	8%	0.2	0.3	-7	0.75	-6.4	-8.7
Cc1ccc(CN(C)S(=O)(=O)c2c(C)noc2/C=C/N(C)C)cc1	nt	5.2	0.4	2	0.68	6.7	1.6
O=C(N/C(=C/c1cccnc1)C(=O)N1CCCCCC1)c1cccc(Br)c1	2%	-1.2	-0.4	2	0.72	0.7	1.7
Cc1ccccc1NC(=S)N1CCN(C(=O)c2ccco2)CC1	6%	-1.4	-0.4	0	0.68	4.7	-2.3
C/C(CC(=O)Nc1ccc([N+](=O)[O-])cc1)=N\NC(=O)c1ccccc1[N+](=O)[O-]	nt	2.8	1.3	-4	nt	nt	4.4
COC(=O)C1=C(Nc2ccc(C)cc2)C=C(C)C(C(=O)OC)C1c1cccc(OC)c1 (stereo unspecified)	0%	0.0	-0.1	-7	0.74	-4.2	5.8
Carrying on.
SMILES	Vif TR-FRET	HNF4A DNA FP	A1 inh	Beta2AR agonist	Ecoli growth	UCH37 inh	LANA-H2A inh
O=C(O)CC/C(=N\NC(=O)c1ccccc1Br)c1ccccc1	8%	2.3	-0.8	-5	nt	nt	-0.6
C/C=C/c1ccc(OCC(=O)N2CCc3cc(OC)c(OC)cc3C2)c(OC)c1	90%	-2.8	0.5	-3	0.69	-0.1	1.8
CCC(CO)Oc1cc(NC(=O)c2cccc(F)c2)c2ncn(C(C)C)c2c1 (stereo unspecified)	nt	3.0	1.8	-20	0.68	1.8	0.6
COc1ccccc1N1CSC2=C(C#N)C(c3ccc(SC)cc3)CC(=O)N2C1 (stereo unspecified)	?	-0.3	-0.5	-6	0.73	4.7	1.2
C(=N\N=C\c1ccccn1)/c1ccccn1	-5%	0.0	0.4	-2	nt	nt	-2.8
Cc1cc(C=O)c(C)n1-c1ccc2c(c1)OCO2	6%	2.2	1.0	1	0.71	0.0	2.7
CCOC(=O)c1cnc(COc2ccc(OC)cc2)[nH]c1=O	2%	4.5	0.4	0	0.68	3.0	3.8
Clc1cccc(CNCCCSc2ncccn2)c1	-3%	1.1	-1.2	-11	0.69	2.1	-2.5
CC12CCC(C3NC(=S)NN=C31)C2(C)C (stereo unspecified)	5%	-0.9	nt	-1	0.71	1.9	nt
O=C(Nc1cccc(N=Cc2cc(Cl)cc(Br)c2O)c1)c1ccco1	nt	2.3	-2.3	25	0.63	2.3	5.0
CC(C)c1csc(CN2CCN(CCc3ccccc3)C(CCO)C2)n1 (stereo unspecified)	nt	-2.1	0.9	-2	0.66	0.3	0.1
CCC(C)(C)NC(=O)C(OC(=O)c1ccco1)c1ccc(OC)cc1 (stereo unspecified)	nt	0.0	-0.4	-3	0.71	5.3	-1.5
O=C(Nc1cccc2ncccc12)c1cccc(F)c1	-4%	-1.6	-0.1	-5	0.69	2.9	-1.0
O=C(O)CCn1c(C(=O)O)cc2sccc21	5%	3.4	0.7	4	0.73	2.1	-5.8
c1ccc(-n2nnc(-c3cccnc3)n2)cc1	2%	0.9	-7.2	5	0.67	3.8	1.0
C=CCNC(=S)N1CCN(c2ccccc2Cl)CC1	-4%	-3.6	0.8	-7	0.67	4.1	-5.8
Cc1ccc(-c2ccc(=O)n(CC(=O)NCCN3CCCCC3C)n2)cc1 (stereo unspecified)	?	4.6	1.0	-3	0.7	3.7	-0.2
O=C(Cc1ccccc1)NCC(=O)N/N=C/c1ccc([N+](=O)[O-])s1	nt	1.0	0.4	2	nt	nt	2.6
O=C(CCCCCN1C(=O)[C@@H]2Cc3ccccc3CN2C1=O)N[C@@H](Cc1ccc(O)cc1)C(=O)O	nt	1.5	0.0	-5	0.7	4.9	-0.6
NS(=O)(=O)c1cccc(NC(=O)CSc2nnc(C3CC3)n2C2CC2)c1	nt	3.2	0.5	-1	0.71	4.4	2.1
CSc1ccccc1NC(=S)N/N=C/c1cccn1Cc1ccc(F)cc1	-2%	-1.4	0.9	8	nt	nt	-5.1
COc1ccc(-c2ccc3c(c2)S(=O)(=O)c2cccc(C(=O)NC4CCCCC4)c2C3=O)cc1OC	nt	4.2	0.1	8	0.74	-0.6	-6.7
O=C(CNC(=S)NC(=O)c1ccccc1Br)c1ccccc1	nt	0.4	1.3	4	0.67	1.0	-2.9
Brc1ccc(-c2nnc3ccc(N4CCN(c5ccccc5)CC4)nn23)cc1	5%	1.0	1.2	10	0.72	-16	-0.8
CC(=O)NC(CCS(C)(=O)=O)C(=O)Nc1cccc(C)c1 (stereo unspecified)	2%	-0.4	-0.2	5	0.71	1.3	8.0
O=C1CC(C(=O)O)(c2ccccc2)c2cccc(F)c21 (stereo unspecified)	3%	-0.7	0.3	-26	0.69	-3.6	3.2
Cc1ccc(C(=O)NN2C(=O)C3C(C2=O)C2C=CC3C23CC3)cc1 (stereo unspecified)	0%	-1.6	0.5	6	0.69	5.0	3.2

Look-ups from the entries so far.
`N=C1c2ccccc2CN1NC(=O)c1cccc(S(=O)(=O)N2CCCC2)c1` in UCH37 inh shows 1.3
`CC(c1ccccc1)n1cc(C(=O)NCCN2CCOCC2)nn1` (stereo unspecified) in UCH37 inh shows 0.9

High-throughput results (PubChem BioAssay)
